# GIV-Gai inh – blocks GIV peptide binding to rat Galpha-i3 | percent of control (FP), % (concentration not given with the values) | P08753 | Galpha-i3/FITC-GIV peptide fluorescence polarization, 90 min; stronger effect = lower value; scaled: aluminum fluoride 0%, vehicle 100% | 210,000 compounds, 0.42% hits;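 active means replicate mean at 85% of control or lower, very high polarization wells dropped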;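 further: wells of about 15 µL received 100 nL stock; the first replicate is given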
# Target sequence (P08753 whole entry, looked up): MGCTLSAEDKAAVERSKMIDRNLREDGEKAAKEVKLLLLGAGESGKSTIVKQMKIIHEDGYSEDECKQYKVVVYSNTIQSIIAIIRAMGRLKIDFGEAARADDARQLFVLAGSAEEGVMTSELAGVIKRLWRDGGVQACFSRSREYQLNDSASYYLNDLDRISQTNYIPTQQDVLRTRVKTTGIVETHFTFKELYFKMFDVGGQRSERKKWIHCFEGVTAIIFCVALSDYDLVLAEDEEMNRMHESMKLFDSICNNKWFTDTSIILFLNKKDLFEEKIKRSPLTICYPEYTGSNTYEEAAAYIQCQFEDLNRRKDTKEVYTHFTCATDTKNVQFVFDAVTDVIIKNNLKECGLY
# * marks the source's active call; other numbers are inactive results. This is a subset; the hit share may differ from the screen's.
SMILES,GIV-Gai inh
O=C(NCCCc1ccccc1)C1CCN(c2nn3c(=O)c4c(nc3s2)CCCC4)CC1,100
Cc1nn(-c2ccc(F)cc2)c2sc(C(=O)NCC3CCCO3)cc12 (stereo not given),106
COC(=O)C1(O)/C(=C(\O)c2ccccc2)C(=O)C(=O)N1c1ccc(OC)cc1 (stereo not given),108
O=C(Nc1ccc(F)c(Cl)c1)N1CCN(Cc2nc3cccnc3n2-c2cccc(F)c2)CC1,105
Cn1c(=O)n(CCC(=O)N2CCCC2)c(=O)c2cc(S(=O)(=O)NCc3cccnc3)ccc21,106
CC(=O)N1CCC(C(=O)NCc2ccccc2)(N(CCc2ccccc2Cl)C(=O)c2ccc(C)cc2)CC1,102
Cc1ccc(N2C(=O)/C(=C/c3ccc(Cl)cc3)C=C2c2ccccc2)cc1C,112
COc1ccc(N2C(=O)CC(c3ccc([N+](=O)[O-])cc3)C3=C2CCCC3=O)cc1 (stereo not given),102
Cc1ccc(-c2nccc(Oc3cccc(C(=O)NC(C)c4ccc(C)cc4)c3)n2)cc1 (stereo not given),106
C=CCn1c(SCC(=O)NCCOCCO)nc2sc(C)c(C)c2c1=O,105
CC(=O)Nc1ccc(Nc2cc(C(=O)O)c3ccccc3n2)cc1,109
Cc1cccc(-c2noc(CSc3nccn3-c3ccccc3)n2)c1,114
Cc1sc(-c2nc(C(C)C)cs2)cc1S(=O)(=O)NCc1cccs1,108
CCCc1cc(C2CCCN2C(=O)NCC(C)C)no1 (stereo not given),102
O=C(Nc1ccc(Cl)cc1)N1CCCc2ccccc21,113
O=C(C(c1ccccc1)c1ccccc1)N1CCCc2ccccc21,106
Cc1ccc(N2C(=O)/C(=C/c3ccc(Br)cc3)C=C2c2ccccc2)c(C)c1,124
COc1ccc(C2=N/C(=C/c3cccc(OC)c3OC)C(=O)O2)cc1Br,108
COC(=O)c1sc(NC(=O)c2cc3n(n2)C(C(F)(F)F)CC(c2ccc(Cl)c(Cl)c2)N3)c(C(=O)OC)c1C (stereo not given),103
CCOC(=O)c1[nH]c(C)c(CCC(=O)N2CCCC(C(=O)NCCC3=CCCCC3)C2)c1C (stereo not given),108
CCC(=O)Nc1cccc(-c2noc(C3CCCN(C(=O)c4ccc(Cl)cc4OC)C3)n2)c1 (stereo not given),107
CC(C)c1cc(C2CCCN2Cc2cc(F)cc(F)c2)no1 (stereo not given),100
Cc1cccc(C)c1NS(=O)(=O)c1cc(-c2nc(C)c(C)s2)sc1C,99
O=[N+]([O-])c1ccc(-c2nc(-c3ccc(Br)cc3)[nH]c2-c2ccc(Oc3ccc(-c4nc(-c5ccc(Br)cc5)[nH]c4-c4ccc([N+](=O)[O-])cc4)cc3)cc2)cc1,109
O=C(Nc1cccc2nsnc12)c1cc2nc(-c3cccs3)cc(C(F)(F)F)n2n1,105
# (further entries)
SMILES,GIV-Gai inh
Cn1c(N2CCN(C(=O)CC3CCCCC3)CC2)cc(=O)n(C)c1=O,107
CCn1c(=O)n(CC(=O)Nc2ccc(Cl)cn2)c(=O)c2ccccc21,106
COc1ccc(Oc2coc3cc(OC(=O)c4c(OC)cccc4OC)ccc3c2=O)cc1,104
Cc1ccc(C)c(N2CCN(S(=O)(=O)c3cc(-c4cc(C(F)(F)F)[nH]n4)sc3C)CC2)c1,103
CCOc1ccccc1NC(=O)c1c(NC(=O)COc2ccc(Cl)cc2)sc2c1CCC2,106
Cc1ccc(-c2csc(-c3cc4cc(Cl)ccc4oc3=O)n2)c(C)c1,111
CCOC(=O)N1CCN(S(=O)(=O)c2cc(C(=O)Nc3cc(Cl)cc(Cl)c3)ccc2F)CC1,106
O=S(=O)(c1cccc(F)c1)N1CCn2cccc2C1c1ccc(F)c(F)c1 (stereo not given),108
Brc1ccc(-c2nc(N3CCCC3)c3ccccc3n2)cc1,109
O=C(Cn1ncn2nc3c(c2c1=O)CCCC3)NCc1ccc(F)cc1,108
Cc1cc(-c2c(C)sc(C)c2S(=O)(=O)NC2CCCc3ccccc32)n[nH]1 (stereo not given),100
CC(=O)OCC1OC(n2cnc3[nH]ncc3c2=O)C(OC(C)=O)C(OC(C)=O)C1OC(C)=O (stereo not given),113
O=C(CSc1nnc(-c2ccncc2)n1Cc1ccccc1)c1ccc(Br)cc1,99
O=C(Nc1cc2c(cc1[N+](=O)[O-])OCCO2)c1cc2nc(-c3cccs3)cc(C(F)(F)F)n2n1,112
COc1cccc(N/C(SCc2cccc([N+](=O)[O-])c2)=C(/C#N)C(=O)NCc2ccccc2)c1,112
CCN1CCN(CCCNC(=O)CCC(=O)Nc2nc(-c3cc4cccc(OC)c4oc3=O)cs2)CC1,116
Cc1cc2c(cc1C)C(c1cc(Br)ccc1F)CC(=O)N2 (stereo not given),113
CC12CCC(C(=O)Nc3ccc(Cl)cc3)(OC1=O)C2(C)C (stereo not given),104
Cc1ccc(-c2c(C(=O)Nc3ccc4nn(-c5ccccc5)nc4c3)oc(=O)c3ccccc23)cc1,98
CC(C)c1csc(-c2csc(S(=O)(=O)NC3CCCCC3)c2)n1,109
CC1=C(C(=O)Nc2ccccc2C)C(c2ccco2)C(C#N)=C(SCC(=O)Nc2cccc(Cl)c2)N1 (stereo not given),108
Cc1ccc(/C(O)=C2\C(=O)C(=O)N(c3ccccn3)C2c2ccc(C(C)C)cc2)cc1 (stereo not given),114
O=S(=O)(Nc1ccccc1)c1ccc2c(c1)-c1oncc1CO2,100
COC(=O)c1ccc2c(=O)n(Cc3ccc4c(c3)OCO4)c(SCC(=O)Nc3ccc(OC)cc3OC)nc2c1,109
COc1ccc(C2CC(C(F)(F)F)n3ncc(C(=O)N4CCc5cc(OC)c(OC)cc5C4C)c3N2)cc1OC (stereo not given),109
# Going on with the list:
SMILES,GIV-Gai inh
Cc1nn(-c2nc3ccccc3n2C)c2c1C(c1cccc(Cl)c1)CC(=O)N2 (stereo not given),100
Cc1cc(C=C2C(=O)NC(=S)NC2=O)c(C)n1-c1ccc(-c2ccccc2)cc1,121
C(=C\c1nc(-c2cccc(-c3ccn[nH]3)c2)no1)/c1ccccc1,101
c1ccc(N=C2c3ccccc3-c3nc4ccccc4cc32)cc1,119
CCOC(=O)C1=CN(Cc2ccc(OC)c(OC)c2)C=C(C(=O)OCC)C1c1ccc2c(c1)OCO2,99
Cc1cc(N2CCCC2)nc2ccc(NC(=O)C3CCCCC3)cc12,105
COc1cc(C=Nc2c(C)n(C)n(-c3ccccc3)c2=O)cc(I)c1O,105
CCCCNc1nc(SCC(=O)N2CCN(c3ccccc3OC)CC2)nc2ccccc12,114
COc1cc(OC)cc(-c2nc3c4ccccc4n(CC(=O)c4ccc(OC)c(OC)c4)c(=O)n3n2)c1,97
CCc1cc2c(N3CCCC(C(=O)NCCN4CCOCC4)C3)ncnc2s1 (stereo not given),104
COc1ccc(-c2cc3n(n2)CCCN(S(=O)(=O)c2ccc4c(c2)CCC4)C3)cc1,100
Cc1nc(-c2cc(S(=O)(=O)NC3CC3)c(C)n2C)sc1C(=O)N1CCOCC1,100
COc1ccc(OC)c(C2Sc3ccccc3NC3=C2C(=O)c2ccccc23)c1 (stereo not given),117
CC1(C)C(=O)N(Cc2ccc([N+](=O)[O-])cc2)c2ccccc2N1C(=O)c1ccc(F)cc1,106
c1ccc(-n2nnnc2Oc2cccc(CNCCN3CCOCC3)c2)cc1,99
CC12C=CC(C)(O1)C1C(=O)N(c3cccc(C(F)(F)F)c3)C(=O)C12 (stereo not given),98
O=C(CSc1nc2c(c(=O)n1-c1ccc(F)cc1)SCC2)Nc1nccs1,99
O=C(C1CCN(S(=O)(=O)c2cc(-c3noc(C4CCC4)n3)cs2)CC1)N1CCOCC1,104
CN(C)C(=O)c1csc2nc(-c3ccc(NC(=O)c4ccccc4Cl)cc3)cn12,103
O=C(NCC1CCCO1)C1CC(=O)N(c2ccc3c(c2)CCN3C(=O)C2CCC2)C1 (stereo not given),106
CC(=O)OCCN1C(=O)c2ccc3c4c(ccc(c24)C1=O)C(=O)N(CCOC(C)=O)C3=O,116
O=C(Nc1ccc(C(F)(F)F)cc1)c1cc(S(=O)(=O)N2CC3CC(C2)c2cccc(=O)n2C3)ccc1F (stereo not given),108
COc1ccc(Br)cc1C1C(N2C(=O)c3ccc([N+](=O)[O-])cc3C2=O)C(=O)N1c1ccc(C)cc1C (stereo not given),110
CC(=O)C1=C(C)NC(SCc2ccccc2F)=C(C#N)[C@@H]1c1ccccc1[N+](=O)[O-],103
CCC(=O)Nc1cccc(-c2noc(C3CCCN(C(=O)c4ccc(OC)cc4OC)C3)n2)c1 (stereo not given),99
# The listing continues:
SMILES,GIV-Gai inh
Cc1nn(-c2ccccc2)c(C)c1CN1CCC(N2CCCCC2)CC1,107
CCCCN(CC)c1ccc2nnc(CCc3nc(-c4ccc(Br)cc4)no3)n2n1,100
CC1(C)c2ccccc2N(Cc2ccccc2)C12C=Nc1c(ccc3ccccc13)O2 (stereo not given),108
COC(=O)c1cnc(N2CCN(C)CC2)c2ccccc12,106
NC(=O)c1cc2[nH]c3ccccc3c2[n+](-c2ccc([N+](=O)[O-])cc2)c1N,124
CCOC(=O)C1CCN(c2nc(-c3ccc(C)cc3)nc3ccccc23)CC1,119
COc1cccc(CN2CCCC2c2cc(C(C)C)on2)c1OC (stereo not given),121
Cc1cc(NS(=O)(=O)c2cc(-c3ccn[nH]3)sc2C)ccc1Br,100
COc1ccc(NC(=O)Nc2cccc(-c3nnc(-c4ccccc4)o3)c2)cc1OC,105
COCCCNC(=O)CSc1nc2ccccc2c(=O)n1CCC(=O)NCCc1ccc(OC)c(OC)c1,119
CCCCOc1ccc(C(=O)N2c3ccccc3N3C(c4c(C)c(Cl)c(C)c(Cl)c4C)=NON23)cc1,111
CCCC1=C(C(=O)OCC)C(c2cc(OC)c(OC)c(OC)c2)C(C#N)=C(N)O1 (stereo not given),111
COc1ccc(N2C(=O)C(N3C(=O)c4ccccc4C3=O)C2c2cc(OC)c(OC)c(OC)c2)cc1Cl (stereo not given),114
CCCc1[nH]nc2c1C(c1ccc(OC(=O)c3cccs3)c(OC)c1)C(C#N)=C(N)O2 (stereo not given),104
Cc1ccc(NC(=O)N2CCC(n3cnc4ccccc4c3=O)CC2)cc1C,105
Cc1[nH]c(C)c(S(=O)(=O)NC2CCCCC2)c1-c1nnc(C2CCC2)o1,103
O=C(CC1CCN(C(=O)c2ccc3oc(-c4ccccc4)nc3c2)CC1)NCc1ccccc1,101
CCOC(=O)c1nc(NS(=O)(=O)c2ccc(C)cc2)sc1C,102
CN(C)C(=O)c1ccc2c(c1)nc(CN1CCN(C(=O)c3ccc(Cl)cc3)CC1)n2C,107
CC(C)Cn1c(=O)c(-c2ccc(C(=O)N(C)C)cc2)nc2ccccc21,96
CCOc1ccc(C2Nc3ccc4ccccc4c3C3=C2C(=O)CC(C)(C)C3)cc1OC (stereo not given),115
CC(=O)Nc1cnc(N2CCN(c3cc(C)ccc3C)CC2)c(C(=O)O)c1,108
CCS(=O)(=O)c1nc2ccc(NS(=O)(=O)c3ccc(F)cc3)cc2s1,104
O=c1oc2ccccc2cc1-c1nc(-c2ccc(Cl)cc2)cs1,112
Cc1c(C(=O)N2CCN(c3cccc(Cl)c3)CC2)sc2ncn(CC(=O)N3CCC(C)CC3)c(=O)c12,116

# Laid out differently: four of the compounds above
molecule	GIV-Gai inh
COc1ccc(N2C(=O)C(N3C(=O)c4ccccc4C3=O)C2c2cc(OC)c(OC)c(OC)c2)cc1Cl (stereo not given)	114
CCCCN(CC)c1ccc2nnc(CCc3nc(-c4ccc(Br)cc4)no3)n2n1	100
CCOC(=O)c1nc(NS(=O)(=O)c2ccc(C)cc2)sc1C	102
CCOC(=O)C1CCN(c2nc(-c3ccc(C)cc3)nc3ccccc23)CC1	119

# New compounds follow.
SMILES,GIV-Gai inh
Cc1cc(C2CCCN2Cc2ccc(F)c(F)c2)no1 (stereo not given),100
COc1ccc(-c2nc3ncc(-c4ccccc4)nn3c2C)cc1,111
CCc1nc(-c2csc(S(=O)(=O)N3CCC(C(=O)Nc4ccc(C)cn4)CC3)c2)no1,108
CCOC(=O)c1cc2c(cc1CSc1nc3ccccc3c(=O)n1CC1COc3ccccc3O1)OCOC2 (stereo not given),108
CCCCN1/C(=C2/SC(=S)N(CC)C2=O)Sc2ccc(OC)cc21,103
NC(=O)NN=C1CSc2sc(=S)sc2SC1,106
Cc1ccc(NC(=O)Nc2ccc(CCc3nc4ccccc4[nH]3)cc2)cc1,109
CC1(C)C2CCC1(CS(=O)(=O)Nc1cc(C(=O)N3CCOCC3)ccc1N1CC3CC(C1)c1cccc(=O)n1C3)C(=O)C2 (stereo not given),106
Cc1ccc(-c2nc3ccccc3c3nnc(SC(C)C(=O)N4CCCC4)n23)cc1 (stereo not given),101

# Given with bars between the fields: entries from further up
canonical_smiles | GIV-Gai inh
Cc1cc(C2CCCN2Cc2ccc(F)c(F)c2)no1 (stereo not given) | 100
COc1ccc(-c2nc3ncc(-c4ccccc4)nn3c2C)cc1 | 111
CCc1nc(-c2csc(S(=O)(=O)N3CCC(C(=O)Nc4ccc(C)cn4)CC3)c2)no1 | 108

# A few values from above:
# Cc1ccc(-c2nc3ccccc3c3nnc(SC(C)C(=O)N4CCCC4)n23)cc1 (stereo not given) in GIV-Gai inh → 101
# NC(=O)NN=C1CSc2sc(=S)sc2SC1 in GIV-Gai inh → 106
# Cc1ccc(NC(=O)Nc2ccc(CCc3nc4ccccc4[nH]3)cc2)cc1 in GIV-Gai inh → 109
# CCc1nc(-c2csc(S(=O)(=O)N3CCC(C(=O)Nc4ccc(C)cn4)CC3)c2)no1 in GIV-Gai inh → 108
# Cc1cc(C2CCCN2Cc2ccc(F)c(F)c2)no1 (stereo not given) in GIV-Gai inh → 100
# CCCCN1/C(=C2/SC(=S)N(CC)C2=O)Sc2ccc(OC)cc21 in GIV-Gai inh → 103
